# Screening results deposited in PubChem by ICCB-Longwood Screening Facility, Harvard Medical School.
# AID504770 = growth inhibition of E. coli YBA685, primary screen, V. cholerae RctB inhibitors | E. coli YBA685 rctB-dependent plasmid, OD600 growth, 3 h; hits give low values | z-score (test concentration not listed) | actives 0.27% (n = 130,000);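 active = z-score under -2 on both plates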;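 note: wells of about 30 µL received 100 nL stock; score is relative to mean and SD of the test wells; the first replicate is given; strong numbers were not always called active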
# CapD inh = Bacillus anthracis CapD inhibitors, primary screen, biochemical, fluorescence intensity; purified CapD enzyme, fluorescence intensity read-out; hits give low values; some hits fall short of the stated cut; z-score (concentration not given with the values); actives 0.23% (n = 140,000); AID 492967, 2010;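 active = z-score under -4 in either of two replicates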;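 note: stock transfer was 100 nL into about 40 µL; score is relative to mean and spread of the plate; one replicate is shown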
# * hit, by the source's call; i = inactive; · = no result given; & = joins results of further samples.
# Values run as follows: AID504770	CapD inh
COc1ccc(C2CC(c3c(O)c4ccccc4oc3=O)=NCCN2Cc2cccc(C)c2)cc1 (centres undefined)
 : -0.35	0.18
CCOC(=O)c1ccc(-c2coc3cc(OC)c(CC)cc3c2=O)o1
 : -0.35	0.065
COc1ccc(C(=O)NC2CCCCCC2)c(OC)c1OC
 : 2.3	·
O=C1/C(=N\OCc2c(F)cccc2Cl)c2ccccc2N1c1ccccc1
 : ·	0.14
O=C(Cc1ccccc1)NCC(c1cccs1)N1CCOCC1 (centres undefined)
 : -0.4	-0.675
Cc1ccc2c(c1)/C(=C/c1ccc([N+](=O)[O-])cc1)c1cc3ccccc3nc1-2
 : ·	-0.355
Oc1ccccc1CC1CC2CCN1CC2 (centres undefined)
 : 0.65	0.175
COC(=O)c1cccc(Nc2nc(-c3ccc([N+](=O)[O-])cc3)nc3ccccc23)c1
 : ·	0.16
O=C(Nc1ccccc1-c1nc2ccccc2o1)c1ccco1
 : 0.3	2.04
C(#Cc1ccccc1)CN1CCN(c2ccccn2)CC1
 : 0.9	1.1
COc1ccccc1OCC(=O)Nc1nc(-c2cccs2)c(NC(=O)c2ccccc2)s1
 : 0.4	-0.115
CCOC(=O)c1c(N)n(-c2cccc(S(=O)(=O)N(CC)CC)c2)c2nc3ccccc3nc12
 : 1.75	·
O=S(=O)(NCC(c1ccccc1)N1CCN(Cc2ccccc2)CC1)c1ccccc1 (centres undefined)
 : -0.85	-0.86
Cc1cccc(C(=O)NCC(=O)N2CCN(c3ccc(Cl)cc3)CC2)c1
 : ·	-0.535
O=C(OCCCn1c(=O)[nH]c2ccccc21)c1ccc2c(c1)S(=O)(=O)c1ccccc1C2=O
 : -1.9	·

# (more compounds)
# Values run as follows: AID504770	CapD inh
O=C(Nc1ccc(S(=O)(=O)N(C2CC2)C2CCN(Cc3ccccc3)CC2)cc1)c1ccco1
 : ·	-0.37
CC(=O)Nc1ccc(NS(=O)(=O)c2cccc3c2C(=O)c2ccccc2C3=O)cc1
 : ·	-0.545
CC1CCC(NC(=O)COc2ccccc2C(N)=O)CC1 (centres undefined)
 : 0.5	·
CCCC(=O)Nc1nc(-c2cc3ccccc3oc2=O)cs1
 : 1.9	i
Cc1ccc2c(c1)c1c3n2CCN(S(C)(=O)=O)C3CCC1 (centres undefined)
 : 2.75	0.19
OC(COc1ccccc1)CN1CCC(c2nc(-c3cccnc3)no2)CC1 (centres undefined)
 : ·	-0.3
CCN(CC1COc2ccccc2O1)C(=O)c1ccccc1Cl (centres undefined)
 : -0.15	·
COC(=O)C1=C(C)C(c2ccccc2OC)NC(=O)N1 (centres undefined)
 : 0.45	·
CC(=O)Nc1cccc(/C(C)=N/N=C2/NC(=O)C(CC(=O)Nc3ccc(Cl)cc3)S2)c1 (centres undefined)
 : -0.65	-0.17
CN(C)c1nc(SCCOC(=O)Nc2ccccc2)nc(N(C)C)n1
 : ·	0.315
CCOc1ccc(C(=O)Nc2c(C)ccc3nsnc23)cc1Br
 : -0.6	62.8
COc1cccc(CNC(=O)Cn2ncn3cccc3c2=O)c1
 : -0.75	14
CN1C(=O)/C(=C/c2cccc(Cl)c2)Sc2ccc(C(=O)N3CCCCC3)cc21
 : -0.4	-0.665
O=C(CNc1ccc(Cl)cc1)c1cc2ccccc2oc1=O
 : 2.15	-0.66
CCOC(=O)c1cc2c(=O)n3cccc(C)c3nc2n(C2CCCC2)c1=N
 : 0.5	22.8

# (continued)
# Values run as follows: AID504770	CapD inh
O=c1[nH]c2cc(Br)cnc2[nH]1
 : 1.1	-1.06
Cc1cc(N=Nc2ccc(Cl)cc2)c2c(C)ccc(C(C)C)cc1-2
 : ·	-0.44
CN1/C(=C\C(=O)CSc2nc(N)cc(=O)[nH]2)C(C)(C)c2ccccc21
 : -1	·
O=C(COc1ccccc1/C=C1/NC(=O)NC1=O)Nc1ccc(F)cc1
 : ·	0.885
COc1cc(OC)c(NC(=O)CS(=O)(=O)Cc2nc(-c3ccc(C)cc3)oc2C)cc1Cl
 : 0.1	0.06
CCC1c2c(nc(C)[nH]c2=O)Oc2c1c(=O)oc1ccccc21 (centres undefined)
 : 0.4	-0.655
COc1ccc(C2CC(=O)C3=C(C2)Nc2ccccc2NC3c2coc3ccccc3c2=O)cc1OC (centres undefined)
 : ·	-0.495
CCN(CC)S(=O)(=O)c1ccc(C(=O)Nc2cc(C)c3c(=O)oc4ccccc4c3n2)cc1
 : -0.1	·
Cc1nn2cc(-c3ncc(C(F)(F)F)cc3Cl)cnc2c1Br
 : ·	-0.175
CC12CCC(C(=O)O)(C/C1=N\N)C2(C)C (centres undefined)
 : -0.75	-0.28
Cc1ccc(C(=O)OCc2c(C)noc2C)c(C)c1
 : 0.95	·
O=c1[nH]c2ccccc2nc1-c1ccccc1
 : 0.2&2	17.9&9.19
O=C(N/N=C/c1cccnc1)c1ccc([N+](=O)[O-])cc1Cl
 : ·	-0.03
CCn1nc(C)c(Br)c1-c1nc(-c2ccc(C(F)(F)F)cn2)no1
 : 0.3	-0.515
COc1ccc(OC)c(NC(=O)c2c(NC(=O)CNCc3ccco3)sc3c2CCC3)c1
 : 0	1.24

# More entries follow:
# Values run as follows: AID504770	CapD inh
O=C(CC(SCc1ccco1)c1ccc([N+](=O)[O-])cc1)c1cccs1 (centres undefined)
 : ·	0.08
O=C(CSc1nnc(-c2ccc(F)cc2)o1)N(Cc1nnc(-c2ccc(Cl)cc2)o1)C1CC1
 : 0.35	·
COc1ccc(S(=O)(=O)N(C)CCc2ccc(OC)c(OC)c2)cc1
 : -1.1	·
O=C(c1cccc(F)c1)c1ccc2c(c1)CCCO2
 : 0.25	·
Cc1ccc(NS(=O)(=O)N(C)C)cc1
 : 0.2	0.16
CCS(=O)(=O)Nc1ccc(C2=NN(S(=O)(=O)c3ccccc3)C(c3ccccc3)C2)cc1 (centres undefined)
 : 1.95	13.9
Cn1c(=O)c2c(nc(NCCc3ccccc3)n2Cc2ccc(Br)cc2)n(C)c1=O
 : ·	0.255
COc1cccc(C(=O)NC(c2ccccc2OC)c2cc(Cl)c3cccnc3c2O)c1 (centres undefined)
 : ·	-0.4
CC(C)(CNC(=O)CSc1ccc(F)cc1)N1CCOCC1
 : -0.55	·
NS(=O)(=O)c1ccc(Nc2nc(-c3cccnc3)cs2)cc1
 : 2.15	0.34
COc1ccc(S(=O)(=O)NNC(=O)c2ccc(-n3c(C)ccc3C)cc2)cc1
 : ·	0.01
CCCC1=NN2C(=N)/C(=C/c3ccc(OC(=O)c4cccs4)c(OC)c3)C(=O)N=C2S1
 : -0.3	-0.4
COc1ccc2nc(NC(=O)C(F)F)sc2c1
 : -0.6	·
N#Cc1cccnc1N1CCCN(C(=O)Nc2ccccc2)CC1
 : -1.6	110
CC(=O)Nc1ccc(NC(=O)c2ccc(CS(C)(=O)=O)cc2)cc1
 : 2.1	·

# Reformatted: entries from further up
SMILES | AID504770 | CapD inh
NS(=O)(=O)c1ccc(Nc2nc(-c3cccnc3)cs2)cc1 | 2.15 | 0.34
O=C(c1cccc(F)c1)c1ccc2c(c1)CCCO2 | 0.25 | ·
COc1ccc(S(=O)(=O)NNC(=O)c2ccc(-n3c(C)ccc3C)cc2)cc1 | · | 0.01
COc1ccc2nc(NC(=O)C(F)F)sc2c1 | -0.6 | ·
Cn1c(=O)c2c(nc(NCCc3ccccc3)n2Cc2ccc(Br)cc2)n(C)c1=O | · | 0.255

# (next part)
# Values run as follows: AID504770	CapD inh
COc1ccc2cc(-c3nc4ccccc4s3)c(=O)oc2c1
 : -0.15	i
NC(=O)c1ccc(-n2nnnc2SCc2ccccc2)cc1
 : -0.6	-0.475
CCC(C)OC(=O)c1[nH]c2c(c1C)C(=O)CC(c1ccc(N(C)C)cc1)C2 (centres undefined)
 : -0.8	-0.505
COc1ccc(C2C(C#N)=C(SCC(=O)Nc3ccccc3)NC3=C2C(=O)CC(C)(C)C3)cc1 (centres undefined)
 : 2.1	-0.345
N#CC(c1ccccc1)C(C#N)c1ccccc1 (centres undefined)
 : ·	-1
COC(=O)C1=C(Nc2ccc(OC(=O)c3ccccc3Cl)cc2)CSC1
 : -0.3	0.055
COc1ccc(-n2c(=S)n(CN3CC(C)OC(C)C3)c3ccccc32)cc1 (centres undefined)
 : -1.05	·
CCOC(=O)N1CCN(c2ncnc3c2cnn3-c2ccc(C)cc2C)CC1
 : ·	-0.74
O=C(OCC(=O)N1CCCCC1)c1n[nH]c2ccccc12
 : 0.3	·
CCCOc1ccccc1/C=C1\SC(N2CCN(C(C)=O)CC2)=NC1=O
 : -0.3	0.1
COc1cc2c(cc1OC)CN(Cc1cc(=O)oc3c(C)c(C)ccc13)CC2
 : -0.4	·
COc1ccc(C(=O)NCCCN2CCOCC2)cc1S(=O)(=O)N1CCCc2ccccc21
 : -1.6	·
O=C(NCc1ccc2c(c1)OCO2)c1cc2c(s1)CSC2
 : -0.8	-0.63
CCOc1ccccc1N/C(SCc1ccc(Cl)cc1)=C(/C#N)C(=O)NCCc1ccc(OC)c(OC)c1
 : ·	-0.115
COc1ccc(CNS(=O)(=O)c2cccc3nonc23)c(OC)c1
 : ·	-0.995

# (next part)
# Values run as follows: AID504770	CapD inh
O=C(O)c1cccnc1SCc1ccc(F)cc1
 : -0.2	·
Cc1ccc(S(=O)(=O)NC(=O)NC2CCN(c3nccc(C(F)(F)F)n3)CC2)cc1
 : -0.95	0.255
COc1ccc(C(=O)NC(C)C(c2cccs2)N2CCOCC2)cc1 (centres undefined)
 : -0.45	1.86
O=C(c1c(Cl)cccc1Cl)N1CCN(Cc2ccccc2)CC1
 : 1.95	-0.81
Clc1ccc(-c2cnnc(-c3ccccc3)n2)cc1
 : -0.45	-1.1
CCN(CC)S(=O)(=O)C1CCS(=O)(=O)C1 (centres undefined)
 : -0.65	-0.505
CC(=O)OCc1c(OC(C)=O)ccc2c([N+](=O)[O-])c(C)n(-c3ccc(C)cc3)c12
 : ·	0.135
O=C(Cn1cnc(Cl)c1Cl)NNC(=O)OCCCc1ccccc1
 : ·	0.265
O=C(CCCn1c(=O)oc2ccccc21)NCCN1C(=O)S/C(=C\c2ccc(F)cc2)C1=O
 : -0.5	·
CCC(C)C(N)C(=O)N1CCOCCN(C(=O)C(N)C(C)CC)CCOCC1 (centres undefined)
 : -0.9	·
O=C(CSc1ccccc1C(=O)O)c1cccc([N+](=O)[O-])c1
 : ·	-0.625
CC(=O)n1nccc1-c1sc(COc2cccc(Cl)c2)nc1C
 : 0.45	0.435
CN=C(C)/C(C(=O)OC)=C(\O)c1ccc(C(F)(F)F)cc1
 : -0.45	-1.26
O=S1(=O)N=C(N2CCN(S(=O)(=O)c3cccs3)CC2)c2ccccc21
 : -0.35	·
CC(C)CNC(=O)[C@@H]1CCCN1C(=O)c1cccs1
 : -0.25	·

# (next part)
# Values run as follows: AID504770	CapD inh
O=C(NCc1ccc(Cl)cc1)OCCc1ccccc1Cl
 : ·	-0.92
Nc1nc(COc2ccc3ccccc3c2)cs1
 : -1.4	·
CCOC(=O)c1ccc(NC(=O)CCc2c[nH]c3ccccc23)cc1
 : 0.2	3.93
CC1=CS/C(=C(/C#N)C(=O)NCc2ccco2)N1c1ccccc1
 : -0.1	0.385
COc1ccccc1N1C(=O)c2ccc(C(=O)Nc3cc(C)on3)cc2C1=O
 : -0.3	0.195
O=C(CCCN1C(=O)/C(=C/c2cccc(Br)c2)SC1=S)Nc1ccc(C(=O)O)cc1
 : ·	-0.875
CCC(=O)N1CCc2cc(S(=O)(=O)NCCN(C)C)ccc21
 : -0.85	-0.41
Cc1ccc(C(=O)N2CCN(C(=O)c3ccc(C)cc3)C2)cc1
 : ·	-1.17
COc1cccc(N/C(SCc2ccccc2C)=C(/C#N)C(=O)NCc2cccs2)c1
 : ·	-0.08
CCCCCCCCCOc1ccc(-c2ncc(CCCCCCC)cn2)cc1
 : ·	-0.375
CCOC(=O)c1cnc(N)nc1C(F)(F)F
 : ·	0.915
CCC1Cc2c(nc3c4c(nc(N5CCOCC5)c(C#N)c24)NC2(CCCCC2)N3)O1 (centres undefined)
 : 0.3	·
O=C(NC1CC2CCC(C1)N2)c1ccccc1 (centres undefined)
 : 1.1	·
CCOC(=O)c1nc2ccccc2c(=O)n1-c1ccc(Br)cc1
 : -0.45	-0.11
COc1ccccc1C1C(C#N)=C(N)Oc2n[nH]c(-c3cc(OC)c(OC)c(OC)c3)c21 (centres undefined)
 : ·	-0.59

# Next part:
# Values run as follows: AID504770	CapD inh
Cc1ccc(NCCNc2ccc(C)cc2)cc1
 : 3.45	-0.675
C#CCOc1ccc(C(=O)OCC)cc1
 : ·	0.175
O=C(CCn1c(=O)oc2ccccc21)N1CCN(c2ccccc2Cl)CC1
 : -0.5	-0.175
O=C(COC(=O)c1c2c(nc3ccccc13)CCC2)Nc1ccc2c(c1)OCCO2
 : -0.05	·
c1ccc(-c2nc(NN3CCCCC3)nc3ccccc23)cc1
 : 0.3	·
CC1(C)C(=O)OC2(c3ccc(Cl)cc3)C1OC(=O)C2(C)C (centres undefined)
 : -0.85	0.305
CC(=O)OC1CCC2C3CC[C@H]4C[C@@H]5C[C@@H]5[C@H](O)C4(C)C3CCC12C (some centres undefined)
 : -0.05	-1.12
COc1cccc(C2CC(C(F)(F)F)n3ncc(C(=O)N4CCCCC4C)c3N2)c1 (centres undefined)
 : -0.95	0.115
CCc1ccc(NC(=O)Cn2c(=O)n(CCC(=O)NCc3ccccc3)c(=O)c3sccc32)cc1
 : -0.2	0.595
O=c1c2ccccc2nc(CSc2ncnc3nc[nH]c23)n1-c1ccccc1
 : ·	-0.025
CCOC(=O)c1cnc(SC)nc1-c1ccccc1
 : 3.2	-0.96
OC(CNCC1COc2ccccc2O1)COC1CCCc2ccccc21 (centres undefined)
 : 1	·
CN1CCCN(C(=O)c2ccc(S(=O)(=O)N3CCCCC3)cc2)c2nc3ccccc3nc21
 : -0.1	·
O=C1NC(=O)/C(=C\c2ccc(Sc3ccccc3)o2)N1
 : ·	10.8
O=C(NC(c1ccccc1)c1ccccc1)c1ccco1
 : 0.35	0.02
